# Bioassay records deposited in PubChem BioAssay by National Center for Advancing Translational Sciences (NCATS).
# TRPV1 potentiator = HTS Assay for Compounds that Act as Potentiators of the Vanilloid Receptor 1; Transient receptor potential cation channel subfamily V member 1 (Homo sapiens), Q8NER1; 320,000 tested, 0.02% active; TRPV1-expressing cells, Fluo-8 calcium influx, capsaicin EC20 potentiation; host cell line not named in the record; control for the full effect not named in the record; potentiation, % at 8.33 µM; active means potentiation above 80%; inconclusive means 30% to 80%; inactive means below 30%; further: 0% is about no effect
# Target sequence (Q8NER1 whole entry, looked up): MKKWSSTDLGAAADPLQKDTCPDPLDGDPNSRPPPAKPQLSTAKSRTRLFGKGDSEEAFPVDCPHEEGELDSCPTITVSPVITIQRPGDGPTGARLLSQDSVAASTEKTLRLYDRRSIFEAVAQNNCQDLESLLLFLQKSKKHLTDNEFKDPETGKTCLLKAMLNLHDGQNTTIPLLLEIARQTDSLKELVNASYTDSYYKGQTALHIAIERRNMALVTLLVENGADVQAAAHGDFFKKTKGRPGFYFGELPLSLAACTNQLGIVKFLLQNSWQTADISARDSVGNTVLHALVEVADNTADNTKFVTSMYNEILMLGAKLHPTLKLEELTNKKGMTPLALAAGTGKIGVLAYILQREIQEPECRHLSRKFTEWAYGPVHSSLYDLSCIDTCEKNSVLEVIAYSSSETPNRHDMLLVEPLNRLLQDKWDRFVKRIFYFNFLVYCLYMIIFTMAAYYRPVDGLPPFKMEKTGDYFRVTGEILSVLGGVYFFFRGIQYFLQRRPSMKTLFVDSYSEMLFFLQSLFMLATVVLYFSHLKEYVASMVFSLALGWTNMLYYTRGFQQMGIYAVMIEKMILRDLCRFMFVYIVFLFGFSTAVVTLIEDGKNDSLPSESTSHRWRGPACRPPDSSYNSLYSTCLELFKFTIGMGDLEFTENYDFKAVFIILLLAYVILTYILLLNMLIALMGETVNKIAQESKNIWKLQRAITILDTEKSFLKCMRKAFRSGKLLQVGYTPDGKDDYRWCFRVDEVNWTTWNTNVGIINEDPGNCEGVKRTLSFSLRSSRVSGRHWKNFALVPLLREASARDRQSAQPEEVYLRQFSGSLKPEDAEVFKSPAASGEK
#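 TRPV1-expressing cells were cultured overnight at 35.5C and loaded with Fluo-8 calcium dye for 40 to 90 min at room temperature. After a 10 s baseline, compound was added and calcium influx was read kinetically for 3 min (ex 480/em 520 nm).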
# gsp agonist = qHTS for Agonist of gsp, the Etiologic Mutation Responsible for Fibrous Dysplasia/McCune-Albright Syndrome: qHTS; gsp mutant cells, cAMP HTRF, 30 min; control for the full effect not named in the record; Potency, µM (top dose mostly 76.9 µM), for the others: at the top dose activation (cAMP increase), actives largely listed as activators; 340,000 tested, 0.13% active; AID 624287, 2012; active = well fitted activation curve with a large enough effect; inconclusive = small, poorly fitted or top-dose-only effect, or another doubt; inactive = no such curve, though single readings can be large or run the other way; cell line not stated here;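 further: phosphodiesterase inhibitor Ro 20-1724 added with compounds to block cAMP breakdown; potency means the concentration at half of the fitted maximal effect; nearly all actives have a fitted effect of over 60% in size; about a fifth of the inactives were tested at one dose only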
#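 Cells stably selected in G418 were plated at 2000/well, grown 16-24 hr, then given compounds in DMSO with the PDE inhibitor […] (300 uM solution added) for 30 min at 37C; cAMP was read by HTRF.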
# D2 PAM = Beta-Arrestin HTS for Positive Allosteric Modulators of the Human D2 Dopamine Receptor: Potentiators; DiscoveRx D2 beta-arrestin cells, luminescence, 90 min; 100% = 57 uM dopamine signal; potentiation, % (concentration not given with the values); 360,000 tested, 0.23% active; D(2) dopamine receptor (Homo sapiens), P14416; active = potentiation of 50% or more; inconclusive = 30% to 50%; inactive = 30% or less;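 further: compound concentration not given in the record; tested on top of an EC20 dose of dopamine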
#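 D2 cells co-treated with compound plus 50 nM dopamine (EC20) for 90 min at 37 deg C to detect potentiation. Beta-arrestin recruitment was read as enzyme-fragment luminescence after 1 h at ambient temperature. Full response was set by 57 uM dopamine.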
# Sfp inh = qHTS Assay for Inhibitors of Bacillus subtilis Sfp phosphopantetheinyl transferase (PPTase); Biochemical Sfp PPTase activity, qHTS; 310,000 tested, 3.5% active; Potency, µM, without a hit: max response, negative = inhibition, actives largely listed as inhibitors; 4'-phosphopantetheinyl transferase ffp (Bacillus subtilis), Q9F4F7; active means well fitted inhibition curve with a large enough effect; inconclusive means small, poorly fitted or top-dose-only effect, or another doubt; inactive means no such curve, though single readings can be large or run the other way;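 further: the enzyme is Sfp with the accession as filed and its product quenches rhodamine fluorescence; potency means the concentration at half of the fitted maximal effect; 0% = enzyme reaction without inhibitor and -100% = no enzyme wells; top concentration of the series not given in the record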
#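 Reaction rates are the 30-min fluorescence difference (ex 525, em 598 nm) in wells containing 15 nM Sfp, 5 uM rhodamine-CoA and 12.5 uM BHQ-2-YbbR at pH 7.6 with 10 mM MgCl2.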
# gsp antag = qHTS for Antagonists of gsp, the Etiologic Mutation Responsible for Fibrous Dysplasia/McCune-Albright Syndrome: qHTS; AID 624288, 2012; 340,000 tested, 0.4% active; Potency, µM (top dose mostly 76.9 µM), inactives show top-dose activity change, negative = inhibition, most hits filed as inhibitors; gsp-mutant cells, cAMP HTRF, 30 min; control for the full effect not named in the record; active = falling curve of any shape with a large fitted effect; inconclusive = falling curve, mostly with a smaller effect; inactive = flat or rising curve; cell line not stated here;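 further: intracellular cAMP measured with PDE inhibitor Ro 20-1724 present during compound exposure; potency means the concentration at half of the fitted maximal effect; on the % scale 0 is the no-effect control and ±100 the full control effect; nearly all actives have a fitted effect of over 65% in size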
#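 G418-selected cells were plated in DMEM/10% FBS for 16-24 h at 37C, then treated with compounds plus the PDE inhibitor […] (300 uM solution added) for 30 min at 37C. Intracellular cAMP was measured by HTRF after 30 min lysis at room temperature.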
# ClpP mod = qHTS Assay for Activators of ClpP; 340,000 tested, 1.9% active; Potency, µM (highest dose often 57.5 µM), for the others: at the highest dose activity change, negative = active; purified B. subtilis ClpP, FRET peptide cleavage, 20 min; active = well fitted falling curve with a large enough effect; inconclusive = small, poorly fitted or top-dose-only effect; inactive = no such curve, though single readings can be large or run the other way; further: potency means the concentration at half of the fitted maximal effect; the source files actives as falling curves though it sought activators and does not explain the sign; nearly all actives have a fitted effect of over 65% in size; many hits overshoot -100%
# Target sequence (P80244 whole entry, looked up): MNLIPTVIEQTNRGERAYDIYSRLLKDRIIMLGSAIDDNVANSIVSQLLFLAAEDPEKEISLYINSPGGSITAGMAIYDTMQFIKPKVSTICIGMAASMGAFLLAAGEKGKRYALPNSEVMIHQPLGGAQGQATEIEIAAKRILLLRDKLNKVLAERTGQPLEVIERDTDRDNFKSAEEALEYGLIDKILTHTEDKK
#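 Purified B. subtilis ClpP, 10 microg/mL final in Tris/HCl pH8 with KCl, BSA, glycerol and Tween-20, cleaved an Abz/nitrotyrosine-quenched decapeptide. Fluorescence (ex 320, em 430) was read at 0 and 20 min at room temperature. Delta was normalized to 5.8 microM ADEP and DMSO/no-enzyme controls.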
# Menin-MLL FL inh = qHTS Assay for Inhibitors Targeting the Menin-MLL Interaction in MLL Related Leukemias: Competition With Fluorescein Labeled MLL-derived Peptide; Fluorescence polarization, fluorescein-MLL peptide displacement from menin; FP activity change, % at 61.4 µM; 290,000 tested, under 10 active; AID 1766, 2009; inconclusive = falling polarisation curve, or a change in total fluorescence; inactive = total fluorescence flat and polarisation flat or rising; no compound was filed as active; the % refers to the polarisation; negative = inhibition;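 further: % of control where 0% means no effect; inhibitors lower the polarisation; unlabelled MLL peptide was the positive control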
# An asterisk follows results filed as active; ? = inconclusive; . = no result given; & = joins results of further samples; [ ] = another dose, or the depositor's remark. Hits appear at their usual frequency (roughly 5.1% active in at least one column).
Compound	TRPV1 potentiator	gsp agonist	D2 PAM	Sfp inh	gsp antag	ClpP mod	Menin-MLL FL inh
O=C(NC1CCCCC1)C(c1ccc(F)cc1)N(Cc1ccco1)C(=O)Cn1nnc2ccccc21 (stereo not given)	-22	-22%	-9	18%	2%	-0.6%	1.5
Cc1c(NC(=O)C(C)OC(=O)COc2ccccc2)c(=O)n(-c2ccccc2)n1C (stereo not given)	1	-5%[15.4 µM]	5	-9%	15%	.	1.0
Cc1cc(=O)oc2cc(OCC(=O)OCC(=O)Nc3ccccc3C(C)C)ccc12	3	-4%	-8	6%	1%	79%	5.2
COc1ccc(NC(=O)C[C@H]2C(=O)N(C3CCCCC3)C[C@@H]2c2ccc(OC)cc2)cc1	.	-5%	-4	.	.	-0.1%	.
COc1cccc(Oc2cncnc2-c2ccc(OC)cc2O)c1	-8	14%	?	-3%	28µM*	1.2%	4.1
CCN(CC)S(=O)(=O)c1ccc(=O)n(CC(=O)N2Cc3ccccc3CC2C(N)=O)c1 (stereo not given)	-4	4%	24	.	12%	-2.0%	.
Cc1ccccc1-n1c(SCc2ccccn2)nc2n[nH]c(C)c2c1=N	.	-22%	-4	-23%	7%[15.4 µM]	-0.8%	0.8
COc1cc2ccccc2cc1C(=O)Nc1ccc(NC(=O)c2cccs2)cc1	0	-7%	-1	-4%	-17%	.	5.5
Cc1ccccc1N1C(=O)CC2(CCCC2)CC1=O	8	4%	1	23%	9%	.	-6.8
Cc1ccc(NC(=O)CCC(C(=O)O)N2C(=O)c3ccccc3C2=O)cc1 (stereo not given)	4	-35%[inhibitor]	-33	10%	-7%	1.1%	1.2
CCn1cc(CNC(=O)c2ccc3nc(Cc4ccc(OC)cc4)oc3c2)cn1	-17	-19%	7	13%	-25%	.	-6.1
Cc1csc2nc(NC(=O)c3ccccc3)sc(=O)c12	13	5%[15.4 µM]	-4	2%	5%	-0.3%	2.6
NC(=O)c1nsc(C(=O)N(c2ccccc2)C(C(=O)NC2CCCC2)c2ccc3ncccc3c2)c1N (stereo not given)	4	-5%[15.4 µM]	15	10%	-5%	.	1.6
Nc1cccnc1Sc1ccc([N+](=O)[O-])cn1	3	5%[15.4 µM]	-15	?	9%	.	-0.6
COc1cc(CN2CCCCC2)ccc1OCc1ccccc1	?	1%	-15	-18%	6%	.	-3.7
CCC1S/C(=N/C(=O)NC2CCCCC2)NC1=O (stereo not given)	10	-13%	-11	10%	18%	0.6%	5.3
CCCCCC(=O)N1C[C@@H](n2cc(COC(=O)c3ccccc3)nn2)[C@H](O)C[C@@H]1c1ccc(Cl)cc1	.	-12%	-1	.	.	1.2%	.
COC(=O)c1ccc(COc2c(F)c(F)cc(F)c2F)o1	0	0%	3	-6%	4%	0.0%	-2.1
Cc1cc2cc(C)c(SCC(=O)NCc3ccco3)nc2cc1C	0	?	-2	-3%	3%	.	-1.5
COC(=O)c1ccccc1OCC(=O)NC1CCCCC1	-13	-18%	-9	17%	0%	-1.6%	0.3
O=Cc1cc2ccccc2nc1SCCCF	5	2%[15.4 µM]	-12	-5%	14%	.	-2.6
O=C(Nc1ccccc1)OCC1COC(c2ccccc2)(c2ccccc2)O1 (stereo not given)	.	-15%	-6	.	-5%	-3.1%	.
OCCCNc1ncnc2sc(-c3ccccc3)cc12	-19	5%[15.4 µM]	-7	-3%	5%	.	-5.0
COC(=O)c1ccc(NC(=O)CCS(=O)(=O)c2ccc3c(c2)NC(=O)C(C)S3)cc1 (stereo not given)	-2	?	-2	15%	4%	1.2%	.
CCS(=O)(=O)c1nc(S(=O)(=O)c2ccc(Cl)cc2)c(N2CCC3(CC2)OCCO3)s1	-2	?	0	-3%	-21%	-0.6%	.
O=C(NCCC1CCCCN1S(=O)(=O)c1cccs1)C(=O)Nc1ccc(F)cc1 (stereo not given)	-4	-2%[15.4 µM]	0	.	4%	1.0%	.
COc1ccc(C(=O)NC(C)c2nnc(SCC(=O)NC3=NCCS3)n2C)cc1 (stereo not given)	2	-4%	1	-2%	12%	.	4.9
COc1ccc(S(=O)(=O)Nc2ccccn2)cc1	10	-15%	1	12%	2%	.	-0.1
CCn1c(C)c(C)c2cc(C(=O)NCCCN3CCN(C)CC3)ccc21	0	-68%[inhibitor]	-33	4%	3%	-14%	0.4
O=[N+]([O-])C(/C=C(\Cl)[N+](=O)[O-])=C(N1CCCCC1)N1CCCCC1	-22	-8%	0	14%	4%	.	16

# The closing 7 compounds of the part above come first, to join the parts:
Compound	TRPV1 potentiator	gsp agonist	D2 PAM	Sfp inh	gsp antag	ClpP mod	Menin-MLL FL inh
COC(=O)c1ccc(NC(=O)CCS(=O)(=O)c2ccc3c(c2)NC(=O)C(C)S3)cc1 (stereo not given)	-2	?	-2	15%	4%	1.2%	.
CCS(=O)(=O)c1nc(S(=O)(=O)c2ccc(Cl)cc2)c(N2CCC3(CC2)OCCO3)s1	-2	?	0	-3%	-21%	-0.6%	.
O=C(NCCC1CCCCN1S(=O)(=O)c1cccs1)C(=O)Nc1ccc(F)cc1 (stereo not given)	-4	-2%[15.4 µM]	0	.	4%	1.0%	.
COc1ccc(C(=O)NC(C)c2nnc(SCC(=O)NC3=NCCS3)n2C)cc1 (stereo not given)	2	-4%	1	-2%	12%	.	4.9
COc1ccc(S(=O)(=O)Nc2ccccn2)cc1	10	-15%	1	12%	2%	.	-0.1
CCn1c(C)c(C)c2cc(C(=O)NCCCN3CCN(C)CC3)ccc21	0	-68%[inhibitor]	-33	4%	3%	-14%	0.4
O=[N+]([O-])C(/C=C(\Cl)[N+](=O)[O-])=C(N1CCCCC1)N1CCCCC1	-22	-8%	0	14%	4%	.	16
CC(C)(C)C(=O)Nc1ccc(C(=O)COC(=O)C2CC2)cc1	12	-7%[15.4 µM]	5	.	6%	.	.
COc1ccc(NC(=O)CNS(=O)(=O)c2cccs2)c(OC)c1	-1	11%	-2	-3%	-4%	0.5%&-0.7%	2.3
COc1ccc(NC(=O)CN(C)CC(=O)c2c(C)[nH]c3ccccc23)cc1	-5	?	-7	.	7%	-0.8%	.
CN(C(=O)COC(=O)c1ccccc1C(=O)N(C)c1ccccc1)c1ccccc1	12	-8%[15.4 µM]	-5	17%	-2%	.	.
CCN(CC)S(=O)(=O)c1cccc(NC(=O)COC(=O)/C=C/c2cccs2)c1	0	-3%[15.4 µM]	2	51%[activator]	-5%	.	2.2
CC1CCCC(C)N1C(=O)COC(=O)CCC1CCCC1 (stereo not given)	5	?	-3	14%	-2%	.	.
CCCc1nc(SC)[nH]c(=O)c1C	1	-17%	-10	19%	11%	-0.8%	2.1
CCc1cc2c(=O)n(Cc3ccccc3)c(SC3CCOC3=O)nc2s1 (stereo not given)	-5	6%[15.4 µM]	-6	-6%	1%	0.4%	-3.8
Cc1ccc(SCC(=O)NCc2ccc(F)cc2)cc1	-15	-4%[15.4 µM]	-5	12%	15%	0.2%	1.0
CN(C)S(=O)(=O)c1cccc(NC(=O)CSc2nncn2-c2ccccc2)c1	18	-8%	-2	12%	7%	2.3%	-0.7
Cc1occc1-c1nnc(SCC(=O)Nc2nccs2)n1CCc1ccccc1	2	19%	0	0%	-24%	1.0%	2.9
COc1cccc(CN(C)C(=O)c2cc(-c3ccc(F)cc3)nc3ccccc23)c1	?	-3%	3	22µM*	?	-10.0%	.
CCCCNC(=O)c1c(N)n(/N=C/c2ccccn2)c2nc3ccccc3nc12	-3	.	.	?	.	.	-3.2
CON(C)c1nc(Oc2ccc(=O)[nH]n2)nc(N(C)C)n1	?	-21%	-3	-7%	5%	0.5%	1.4
COc1ccc(/C=C(/NC(=O)c2ccccc2OC)C(=O)Nc2ccc(C(=O)O)cc2)cc1	13	4%	11	-11%	-4%	-2.3%	.
COc1ccc(C(=O)C(C)OC(=O)CNC(=O)C2CCCCC2)cc1 (stereo not given)	.	-18%	-5	.	-15%	0.9%&-0.3%	.
c1cnc2ccc3c(c2c1)COCO3	.	-17%	7	.	4%	-18%	.
Cc1ccc(NC(=O)c2sc3nc(N4CCOCC4)c4c(c3c2N)CC(C)(C)OC4)cc1	2	?	5	32µM*	-1%	3.9%	2.2
Cc1ccccc1NC(=O)CN1C(=O)N/C(=C\c2ccc(N3CCOCC3)c(F)c2)C1=O	-4	-1%[15.4 µM]	-2	-10%	4%	-2.0%	6.1
CCNC(=O)CN(c1ccc(OC)c(OC)c1)S(=O)(=O)c1ccccc1	-6	2%	-16	12%	2%	1.0%	0.1
CCOC(=O)COc1ccc(Oc2nc(C)cc(OC)n2)nn1	.	19%	-4	9%	1%	0.3%	1.4
CC(=O)C1C(c2ccncc2)NC(=O)NC1(O)C(F)(F)F (stereo not given)	3	-18%	-2	1%	7%	-0.2%	-3.1
